Compound activity from PubChem.
TRb SRC2 PPI – disrupts binding of human TR beta to SRC2; P10828; TRbeta-SRC2 peptide binding, fluorescence polarization; receptor liganded with 1 µM T3; Potency, µM (series often up to 106 µM), without a hit: at the highest dose activity change, negative = inhibition, most hits filed as inhibitors; actives 0.065% (n = 280,000); AID 1469;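 note: potency is the fitted concentration of half-maximal effect; plate controls were bound peptide for no effect and peptide without receptor for full effect; nearly all actives have a fitted effect of over 50% in size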
Target sequence (P10828 whole entry, looked up): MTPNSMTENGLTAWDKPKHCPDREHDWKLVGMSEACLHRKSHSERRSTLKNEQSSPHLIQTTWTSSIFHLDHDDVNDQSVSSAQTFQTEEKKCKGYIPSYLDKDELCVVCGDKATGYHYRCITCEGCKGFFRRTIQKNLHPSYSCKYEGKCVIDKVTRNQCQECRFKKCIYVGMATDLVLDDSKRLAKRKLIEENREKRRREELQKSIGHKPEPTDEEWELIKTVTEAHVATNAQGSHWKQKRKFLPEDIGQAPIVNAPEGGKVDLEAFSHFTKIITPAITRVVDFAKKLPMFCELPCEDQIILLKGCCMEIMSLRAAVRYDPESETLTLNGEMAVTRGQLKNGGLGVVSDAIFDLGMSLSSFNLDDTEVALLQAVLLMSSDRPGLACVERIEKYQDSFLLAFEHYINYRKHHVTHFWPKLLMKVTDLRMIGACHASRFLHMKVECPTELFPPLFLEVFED
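TRb LBD 0.6 uM + Texas Red SRC2 peptide 20 nM, 1 uM T3, Tris buffer w/ 5% DMSO; compound pinned, 5 h RT; FP read ex 555/em 632; normalized to unbound and bound controls.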
TR SRC2 fluor cs – counter-screen for TRb-SRC2 inhibitors: fluorescence interference; Potency, µM (series often up to 106 µM), without a hit: at the top dose fluorescence change, negative = quenching; TRb/SRC2 Texas Red total fluorescence interference; actives 0.29% (n = 280,000); active = well fitted curve in either direction with a large enough effect; inconclusive = small, poorly fitted or top-dose-only effect; note: potency is the fitted concentration of half-maximal effect; % is set by controls: 0 for no effect and ±100 for the full control effect
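Flags fluorescent or light-absorbing compounds by total fluorescence, S + 2P, at 555 nm excitation and 632 nm emission. Mixture: 20 nM Texas Red SRC2 peptide, 0.6 uM human TRb LBD, 1 uM T3, 5% DMSO; compound exposure 5 h at ambient temperature.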
Epigenetic derep – regulators of epigenetic silencing causing reporter derepression in mouse cells; murine LDR cells, GFP reporter derepression, 30 h; Potency, µM (series often up to 53.9 µM), for inactives: at the top dose GFP activation, hits mostly activators; AID 1865; actives 0.2% (n = 280,000); note: potency is the fitted concentration of half-maximal effect; % of control where 0% means no effect; nearly all actives have a fitted effect of over 60% in size
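Reporter derepression read as number of fluorescent GFP-positive objects, 20-120 um in size, counted by laser-scanning cytometer. Mouse LDR line with an epigenetically silenced CMV-GFP locus; compound incubation 30 h, 37 C.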
CBFb RUNX1 block – inhibitors of human CBF-beta and RUNX1 interaction; Potency, µM (doses to about 59.8 µM), for inactives: top-dose activity, negative = inhibition, usual class: inhibitors; Q01196+Q13951; AlphaScreen CBFb-His/RUNX1-biotin binding, biochemical; 230,000 tested, under 10 active; AID 1477; note: % of control where 0% means no effect
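AlphaScreen binding: CBFb-His and RUNX1-biotin (30 nM each) preincubated 20 min, compound added for 15 min, then nickel and streptavidin beads for 90 min, all at room temperature. Disruption of the interaction by any mechanism counts as activity.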
Tau FP inhib – inhibitors of human tau fibril formation. P10636. K18 P301L tau heparin fibrillization, Alexa594 FP, 6 h. Potency, µM (top dose mostly 57.7 µM), without a hit: at the highest dose activity, negative = inhibition, usual class: inhibitors. actives 0.39% (n = 280,000); note: potency is the fitted concentration of half-maximal effect; % is set by controls: 0 for no effect and ±100 for the full control effect; nearly all actives have a fitted effect of over 55% in size
Target sequence (P10636 561-689 P618L limits assumed): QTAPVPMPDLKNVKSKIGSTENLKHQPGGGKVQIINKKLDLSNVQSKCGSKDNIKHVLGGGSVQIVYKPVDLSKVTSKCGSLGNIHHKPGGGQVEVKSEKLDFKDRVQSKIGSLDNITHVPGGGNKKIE
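Recombinant K18 P301L […], labeled with Alexa 594 at 0.24 uM over 15 uM unlabeled; heparin inducer 20 uM final; 37 C, 6 hr; FP endpoint.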
aGal spleen mod – inhibitors or activators of human alpha-galactosidase in spleen homogenate. P06280. human spleen homogenate, 4MU-alpha-Gal fluorescence, 40 min. Potency, µM (doses to about 80 µM), without a hit: top-dose activity change, negative = inhibition, hits mostly inhibitors. actives 0.008% (n = 240,000). AID 2107;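 note: potency is the fitted concentration of half-maximal effect; 0% = enzyme with vehicle and -100% = no enzyme basal signal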
Target sequence (P06280 32-429 limits assumed): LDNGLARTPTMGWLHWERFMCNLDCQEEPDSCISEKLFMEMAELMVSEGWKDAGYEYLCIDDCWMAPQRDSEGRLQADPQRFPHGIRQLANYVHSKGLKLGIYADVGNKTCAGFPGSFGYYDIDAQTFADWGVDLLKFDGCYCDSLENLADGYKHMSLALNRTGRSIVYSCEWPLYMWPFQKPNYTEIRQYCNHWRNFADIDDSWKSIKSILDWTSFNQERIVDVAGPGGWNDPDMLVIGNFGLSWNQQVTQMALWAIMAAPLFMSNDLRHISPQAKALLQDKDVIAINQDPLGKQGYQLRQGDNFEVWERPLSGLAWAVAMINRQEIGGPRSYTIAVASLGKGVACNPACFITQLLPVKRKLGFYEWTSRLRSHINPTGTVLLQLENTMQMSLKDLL
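Human spleen homogenate (1 ug) was the enzyme source, with 4-methylumbelliferyl-alpha-D-galactopyranoside (1 mM final) in pH 5.0 citrate buffer with 0.01% Tween-20. Compounds were titrated; after 40 min at 37C, NaOH/glycine stop, 4-MU fluorescence read; AC50 from Hill fits.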
Tau fluor counter – counter-screen for tau fibril formation inhibitors. tau K18 P301L (four-repeat tau fragment) Alexa594 fluorescence, heparin fibrillization. Potency, µM (titrated, usually from 57.7 µM), without a hit: at the top dose activity change, negative = decrease. actives 0.93% (n = 280,000). AID 1463; note: potency is the fitted concentration of half-maximal effect; % is set by controls: 0 for no effect and ±100 for the full control effect; nearly all actives have a fitted effect of over 55% in size
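Human K18 P301L tau (15 uM unlabeled plus 0.24 uM Alexa 594-labeled, final) in 100 mM sodium acetate pH 7 was mixed with compound and 20 uM heparin and incubated 6 hr at 37 C.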
* hit, by the source's call; ? = inconclusive; . = not tested or not shown; [ ] = dose if it differs, or a comment. Unless noted, calls come from the whole dose curve; as a rule, active = well fitted curve in the direction sought with a large enough effect; inconclusive = small, poorly fitted or top-dose-only effect, or another doubt; inactive = no such curve, though single readings can be large; an effect the other way counts as inactive or inconclusive.

mol	TRb SRC2 PPI	TR SRC2 fluor cs	Epigenetic derep	CBFb RUNX1 block	Tau FP inhib	aGal spleen mod	Tau fluor counter
Cc1ccc(-n2c(SCC(=O)N3c4ccccc4Sc4ccccc43)nnc2-c2ccncc2)cc1	-3%	-1%	0.0%	-1%	2%	-12%	-2%
CC(=O)NC1(C(F)(F)F)C(=O)Nc2c1c(=O)[nH]c(=O)n2-c1ccccc1 (stereo not given)	-1%	0%	-4.2%	0%	-9%	9%	-1%
C=CCn1c(SCc2c(C)noc2C)nc2sc3c(c2c1=O)CCCCC3	-2%	2%	-1.0%	10%	4%	-9%	7%
S=C1SCN(CC2CC2)CN1CC1CC1	2%	1%	?	3%	-18%	8%	3%
CC(=O)c1c(N2CCOCC2)nc2ccc(Cl)cc2c1-c1ccccc1	-4%	1%	1.7%	-1%	2%	-5%	-6%
COc1ccc(-c2ccc(OC)c(C3C4C=CCC(C)C4C(=O)N3Cc3ccccc3)c2)cc1 (stereo not given)	1%	0%	.	7%	.	2%	.
COc1ccc(-c2cnn(C3CCS(=O)(=O)C3)c2N)cc1 (stereo not given)	0%	-1%	-2.9%	1%	-1%	4%	-13%
Cc1cccc(C)c1OCC(O)CN1CCC(CN2C(=O)c3cccc4cccc(c34)C2=O)CC1 (stereo not given)	12%	0%	4.8%	-7%	6%	-1%	-18%
CCC(C)(C)n1nnnc1C(c1ccc(C)cc1)N(Cc1ccco1)Cc1cccs1 (stereo not given)	-7%	-1%	-2.1%	2%	0%	4%	-10%
CC(C)(C)c1ccc(S(=O)(=O)N2CCC(c3nc4ccc(Cl)cc4[nH]3)CC2)cc1	-14%	-2%	-1.2%	2%	?	-1%	?
C#CCn1c(S(=O)(=O)Cc2ccc(F)cc2)nc(-c2ccccc2)c1-c1ccccc1	-5%	0%	2.6%	3%	4%	-3%	-12%
CCCc1nc(-c2cc3ccc(C)cc3[nH]c2=O)no1	-1%	0%	0.0%	6%	-1%	?	-7%
CC(CN1CCOCC1)C(=O)c1ccccc1 (stereo not given)	5%	0%	2.8%	13%	3%	-6%	-3%
COc1ccc(C(C#N)Nc2ccccc2)cc1 (stereo not given)	-4%	-2%	0.0%	6%	10%	-2%	1%
Cc1cc(C)c(C#N)c(SCC2COc3ccccc3O2)n1 (stereo not given)	-2%	-1%	-3.5%	4%	?	5%	-28%
Cc1ccc(Oc2nc3c(c(=O)n(Cc4ccccc4F)c(=O)n3C)n2C)cc1	-5%	-3%	-7.9%	-4%	-6%	-12%	-2%
Cc1sc2nc(CN3CCCC3)nc(N3CCN(C(=O)c4ccco4)CC3)c2c1C	1%	-2%	-4.8%	-15%	0%	3%	14%
Cc1cccc(OCCNC(=O)CSc2ccc(C(F)(F)F)cc2[N+](=O)[O-])c1	-2%	-4%	1.5%	7%	2%	6%	-27%
CCOC(=O)c1c(NC(=O)C2c3ccccc3Oc3ccccc32)sc(C(N)=O)c1C	-1%	0%	0.8%	0%	-4%	7%	-13%
Cc1ccc(-c2nn3c(C)nnc3s2)cc1NCc1c(F)cccc1Cl	6%	0%	-1.0%	10%	-4%	-1%	2%
CN(c1ccccc1)S(=O)(=O)c1ccc(C(=O)OCC(=O)NC(N)=O)cc1	4%	-1%	-1.9%	9%	-9%	3%	-3%
COC(=O)C1=NN(c2cccc(C)c2)C2C(=O)N(c3ccccc3OC)C(=O)C12 (stereo not given)	2%	-5%	-1.6%	1%	2%	2%	-4%
N#CC(C(=S)Nc1ccccc1)c1nc2ccccc2[nH]1 (stereo not given)	9%	-9%	?	?	2%	-4%	?
O=C(Nc1ccc2oc(=O)ccc2c1)c1ccc(-c2cccc(Cl)c2)o1	-4%	-4%	16%	5%	-17%	-18%	-14%

4 entries drawn at random from those above, as already listed:
mol	TRb SRC2 PPI	TR SRC2 fluor cs	Epigenetic derep	CBFb RUNX1 block	Tau FP inhib	aGal spleen mod	Tau fluor counter
COC(=O)C1=NN(c2cccc(C)c2)C2C(=O)N(c3ccccc3OC)C(=O)C12 (stereo not given)	2%	-5%	-1.6%	1%	2%	2%	-4%
S=C1SCN(CC2CC2)CN1CC1CC1	2%	1%	?	3%	-18%	8%	3%
CCCc1nc(-c2cc3ccc(C)cc3[nH]c2=O)no1	-1%	0%	0.0%	6%	-1%	?	-7%
Cc1ccc(-c2nn3c(C)nnc3s2)cc1NCc1c(F)cccc1Cl	6%	0%	-1.0%	10%	-4%	-1%	2%

(list continues)
mol	TRb SRC2 PPI	TR SRC2 fluor cs	Epigenetic derep	CBFb RUNX1 block	Tau FP inhib	aGal spleen mod	Tau fluor counter
CC1C/C(=N\NC(=S)NCc2ccccc2)CC(C)(C)C1 (stereo not given)	7%	-2%	7.2%	2%	4%	0%	-20%
COc1ccc(C2=NOC(C(=O)NCC(C)C)C2)cc1 (stereo not given)	3%	3%	1.0%	9%	-5%	-4%	2%
CCn1c(SCC(=O)N(C(C)C)C(C)C)nnc1-c1cc2ccccc2cc1O	-1%	-4%	-1.0%	-5%	1%	-8%	-13%
NC(=O)c1cc(-c2ccccc2)nc(N2CCOCC2)n1	7%	0%	-0.6%	11%	-10%	1%	-13%
CCCCc1nc2sc3c(SCC(=O)NCc4ccco4)ncnc3c2c2c1CCC2	-17%	-3%	-0.9%	2%	2%	-10%	5%
Cc1cc2c(cc1C)CSC(c1c(O)ccc3ccccc13)SC2	-1%	0%	10%	-8%	22µM*	-4%	7.9µM*[quencher]
CCc1ccc(OCc2nnc(SCC(=O)N3CCOCC3)o2)cc1	6%[53 µM]	-3%[53 µM]	1.8%	1%	-12%	-3%	-11%
Cc1cc(C)cc(C(=O)OCC(=O)Nc2cccc(S(=O)(=O)NC3=NCCCCC3)c2)c1	0%[53 µM]	0%[53 µM]	1.3%	8%	?	-5%	-23%
Cc1nc(-c2ccccn2)sc1C(=O)Nc1ccc(F)cc1	3%	-2%	-0.4%	6%	-7%	6%	-11%
CCOC(=O)c1sc(Nc2nc3c(F)cccc3s2)cc1C	-7%	-2%	0.0%	-7%	3%	3%	2%
O=C(c1cc2nc(-c3ccco3)cc(C(F)(F)F)n2n1)N1CCN(c2ccccn2)CC1	-17%	1%	-0.8%	4%	-4%	8%	3%
Nc1ccc2c(c1)C(=O)N(CCCC(=O)O)C2=O	5%	-6%	1.0%	-2%	-1%	7%	-6%
CCOC(=O)c1c(NC(=O)Cn2cnc([N+](=O)[O-])n2)sc2c1CCC(C)C2 (stereo not given)	-7%	-2%	-0.2%	0%	2%	6%	-21%
O=C(Nc1nc(-c2nc3ccccc3s2)cs1)C1CC1	-3%	-6%	1.3%	10%	-3%	3%	-21%
CCCc1nc(-c2cc3cc(C)ccc3[nH]c2=O)no1	7%	-1%	4.7%	5%	3%	0%	-6%
CC(C)C[C@H](NC(=O)c1nc[nH]c1C(=O)NCC(=O)OC(C)(C)C)C(=O)OCc1ccccc1	0%	1%	1.5%	3%	?	0%	?
CC1(C(=O)OCC(=O)Nc2cccc(S(=O)(=O)NC3=NCCCCC3)c2)CC1(Cl)Cl (stereo not given)	-3%	-1%	-0.2%	9%	-4%	-1%	-7%
CCCCC(=O)NC(=S)NNC(=O)c1ccc(Cl)cc1Cl	-1%	0%	0.9%	5%	-1%	-1%	-2%
CC(C)(C)n1nnnc1C(c1cccs1)N(Cc1ccc(Cl)cc1)CC1CCCO1 (stereo not given)	-7%	0%	-1.8%	-4%	-8%	-3%	-11%
O=C(CSc1nnc(-c2cccs2)n1-c1ccccc1)Nc1ccccc1	-11%	1%	-8.7%	0%	-7%	7%	4%
CCOc1cc(/C=N/NS(=O)(=O)c2ccccc2)ccc1OS(=O)(=O)c1ccc(C)cc1	2%	4%	0.0%	-4%	?	-5%	?
Cc1c(NC(=O)c2cc(-n3cnnc3)ccc2Cl)cccc1-c1nc2ccccc2o1	-10%	0%	?	-7%	-12%	-21%	-8%
COc1ccc(F)cc1C(=O)C1CCCN(Cc2c[nH]c3ccccc23)C1 (stereo not given)	7%[53 µM]	-1%[53 µM]	-3.8%	2%	1%	-2%	-6%
CCc1cc(C(c2cccc(OC)c2)N2CCOCC2)c(NC(=O)c2ccccc2)s1 (stereo not given)	-3%	-1%	0.0%	6%	5%	7%	-26%

3 compounds already listed, ordered by molar mass, highest first:
mol	TRb SRC2 PPI	TR SRC2 fluor cs	Epigenetic derep	CBFb RUNX1 block	Tau FP inhib	aGal spleen mod	Tau fluor counter
CCOc1cc(/C=N/NS(=O)(=O)c2ccccc2)ccc1OS(=O)(=O)c1ccc(C)cc1	2%	4%	0.0%	-4%	?	-5%	?
Cc1c(NC(=O)c2cc(-n3cnnc3)ccc2Cl)cccc1-c1nc2ccccc2o1	-10%	0%	?	-7%	-12%	-21%	-8%
O=C(CSc1nnc(-c2cccs2)n1-c1ccccc1)Nc1ccccc1	-11%	1%	-8.7%	0%	-7%	7%	4%

Continued.
mol	TRb SRC2 PPI	TR SRC2 fluor cs	Epigenetic derep	CBFb RUNX1 block	Tau FP inhib	aGal spleen mod	Tau fluor counter
Cn1c(=O)c2c(nc(N3CCCCCC3)n2Cc2cccc3ccccc23)n(C)c1=O	0%	0%	-1.8%	6%	3%	2%	-14%
Cc1nc(SCC(=O)O)c(C#N)c2c1CCCC2	0%	3%	1.1%	?	1%	9%	0%
CC1CCN(CC(=O)Nc2cccc(Cl)c2)CC1	-2%	0%	-2.0%	-2%	1%	-6%	3%
COc1ccc(/C=C(/Sc2nnc(-c3ccc(Cl)cc3)o2)C(=O)O)cc1	-1%	2%	-1.4%	5%	-7%	-2%	-20%
Cc1cccc(/C=c2\s/c(=C\C(=O)C(C)(C)C)[nH]c2=O)c1	-4%	-6%	-3.2%	4%	-10%	10%	-5%
COc1ccc(-c2cnnn2-c2ccc(NC(=O)c3ccco3)cc2)cc1OC	-2%	-2%	-1.2%	-3%	-2%	-3%	-12%
O=C(Nc1nc(-c2ccc(F)c(F)c2)cs1)c1ccc(OCC2CCCO2)cc1 (stereo not given)	2%	-1%	2.5%	-2%	-2%	0%	-2%
O=C(NC1CCCCC1)C(c1cccs1)N(Cc1cccs1)C(=O)c1cccs1 (stereo not given)	9%	3%	-1.2%	5%	-5%	0%	-8%

Some of the compounds tested. The share of hits here may be higher or lower than overall.
